CtBP-E1A blk – CtBP/E1A binding inhibition; AlphaScreen GST-E1A/His-CtBP binding, 1536-well; active compounds read low; control for the full effect not named in the record; activity change, % (no concentration beside the values); 0.49% of 340,000 active; AID 651724; in the data active means activity change below about -65%; inconclusive means about -30% to -65%; inactive means above about -30%; note: % is set by controls: 0 for no effect and ±100 for the full control effect
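GST-E1A and His-tagged CtBP (125 nM each as 5X stock) were preincubated with pin-transferred compound for 2 h at 37 °C in the dark, then glutathione donor and nickel acceptor beads were added for 1 h before AlphaScreen reading.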
TRPML1 ag – human mucolipin-1 channel agonism; Q9GZU1; TRPML1-expressing cells, Ca2+ dye fluorescence, FDSS; host cell line not named in the record; reference of the full effect not given here; activation, % (test concentration not listed); 0.12% of 410,000 active; in the data active = activation above about 50%; inconclusive = about 30% to 50%; inactive = below about 30%; note: 0% is about no effect; the text of the record puts the active cut at 80%
Target sequence (Q9GZU1 whole entry, looked up): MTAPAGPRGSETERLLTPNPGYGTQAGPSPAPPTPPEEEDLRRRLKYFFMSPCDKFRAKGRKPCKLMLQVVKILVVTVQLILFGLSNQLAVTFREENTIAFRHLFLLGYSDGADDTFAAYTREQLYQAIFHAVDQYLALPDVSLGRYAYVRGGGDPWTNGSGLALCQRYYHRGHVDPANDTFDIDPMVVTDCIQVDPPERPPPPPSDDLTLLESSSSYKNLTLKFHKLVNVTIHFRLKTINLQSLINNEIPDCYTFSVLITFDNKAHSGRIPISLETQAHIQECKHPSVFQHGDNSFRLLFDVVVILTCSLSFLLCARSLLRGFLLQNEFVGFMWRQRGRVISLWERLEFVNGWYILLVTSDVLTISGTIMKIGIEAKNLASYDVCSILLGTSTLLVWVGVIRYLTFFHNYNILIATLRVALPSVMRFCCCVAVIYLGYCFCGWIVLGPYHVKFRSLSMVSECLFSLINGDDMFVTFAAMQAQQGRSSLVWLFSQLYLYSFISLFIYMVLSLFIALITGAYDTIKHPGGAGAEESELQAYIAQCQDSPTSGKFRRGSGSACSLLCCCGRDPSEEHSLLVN
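In this qHTS format, compounds were pin-transferred onto Ca8-dye-loaded TRPML1-DL cells induced with Tet overnight, and intracellular Ca2+ fluorescence was recorded kinetically for 110 s after a 10 s baseline. A subsequent 4uM final 54-4 (EC80) addition followed by a second 110 s read served as the antagonist phase.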
Six1-Eya2 inh – inhibitors of human Six1/Eya2 interaction; AlphaScreen GST-Six1/His-Eya2 binding, biochemical; active compounds read low; control for the full effect not named in the record; activity change, % (test concentration not listed); 0.56% of 360,000 active; AID 651725; in the data active = activity change below about -65%; inconclusive = about -30% to -65%; inactive = above about -30%; note: % is set by controls: 0 for no effect and ±100 for the full control effect
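GST-Six1 + His-Eya2 (5X stock: 250/500 nM); Tris pH 8.0, 300 mM NaCl, 0.05% BSA, 0.02% Tween 20; GSH donor/Ni acceptor beads; 1 h 37 °C dark; AlphaScreen readout.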
D2 ag – human D2 receptor agonism in beta-arrestin assay; P14416; DiscoveRx PathHunter D2 beta-arrestin, luminescence, 90 min; 100% = 57 uM dopamine signal; activation, % (test concentration not listed); 0.084% of 360,000 active; AID 624465; in the data active = activation above about 40%; inconclusive = about 15% to 40%; inactive = below about 15%; note: compound concentration not given in the record; the text of the record calls up to 30% inactive
Target sequence (P14416 whole entry, looked up): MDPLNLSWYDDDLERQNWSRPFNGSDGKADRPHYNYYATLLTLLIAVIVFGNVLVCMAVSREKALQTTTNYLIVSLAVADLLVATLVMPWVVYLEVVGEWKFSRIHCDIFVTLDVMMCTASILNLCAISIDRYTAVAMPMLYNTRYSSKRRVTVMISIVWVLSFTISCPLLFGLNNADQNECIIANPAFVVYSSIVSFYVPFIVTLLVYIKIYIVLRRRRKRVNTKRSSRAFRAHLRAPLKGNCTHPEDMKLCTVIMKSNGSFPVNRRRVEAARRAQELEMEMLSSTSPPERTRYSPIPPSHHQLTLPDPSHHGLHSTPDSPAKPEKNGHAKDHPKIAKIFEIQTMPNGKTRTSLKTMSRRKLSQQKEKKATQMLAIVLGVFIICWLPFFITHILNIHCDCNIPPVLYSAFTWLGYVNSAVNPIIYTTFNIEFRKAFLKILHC
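Agonist mode: compounds alone added to overnight-plated D2 PathHunter cells for 90 min at 37 C, with 57 uM final dopamine (EC100) defining full response. Beta-arrestin recruitment detected by chemiluminescent reagent, read after 1 h at ambient temperature.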
D2 potentiator – human D2 receptor positive allosteric modulation; P14416; AID 624464; potentiation, % (no concentration beside the values); 0.23% of 360,000 active; DiscoveRx D2 beta-arrestin cells, luminescence, 90 min; 100% = 57 uM dopamine signal; active = potentiation of 50% or more; inconclusive = 30% to 50%; inactive = 30% or less;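 note: compound concentration not given in the record; tested on top of an EC20 dose of dopamine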
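PathHunter D2 cells, attached overnight at 37 deg C, received compound in DMSO plus dopamine at EC20 (50 nM final) for 90 min at 37 deg C. Beta-arrestin recruitment was read as luminescence after 1 h with detection reagent at ambient temperature.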
PINK1 expr mod – changes PINK1 expression; PINK1 immunofluorescence, high-content cytometry, 24 h; AID 624263; 0.2% of 410,000 active; Potency, µM (series often up to 76.6 µM), inactives show top-dose activation (PINK1 increase), actives largely listed as activators; active = well fitted activation curve with a large enough effect; inconclusive = small, poorly fitted or top-dose-only effect; inactive = flat fitted curve, though single readings scatter; cell line not stated here;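 note: potency is the fitted concentration of half-maximal effect; % of control where 0% means no effect; nearly all actives have a fitted effect of over 65% in size; a mitochondrial uncoupler was the plate control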
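Cells are seeded, rested 12 hours, then given compound at five concentrations or DMSO for 24 hours. After fixation, blocking and antibody staining, PINK1 amount and mitochondrial localization are scored; CCCP serves as control.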
Numbers without * were called inactive; ? = inconclusive; . = not tested or not shown; & = joins results of further samples; [ ] = dose if it differs, or a comment.

SMILES	CtBP-E1A blk	TRPML1 ag	Six1-Eya2 inh	D2 ag	D2 potentiator	PINK1 expr mod
O=C(CSc1nnc(Cc2ccccc2)n1-c1ccccc1)NNC(=O)Cc1ccccc1	-1	0.0	-1	-2.7	-7	5.9%[38.3 µM]
Cc1c(Cl)c(-c2n[nH]c(=S)n2CC(C)C)nn1C	1	1.6	-3	2.0	-6	0.5%
CCOC(=O)N1CCN(C(=O)C[C@@H]2C[C@@]3(C(=O)OCC)CCCC=C3N(Cc3ccco3)C2=O)CC1	-22	-0.7	2	.	.	0.3%
Cn1c(/C(C#N)=C/c2ccc(O)cc2)nc2ccccc21	0	.	-1	-6.0	7	1.1%
CC(C)NC(=O)NC(=O)CN1c2cccc3cccc(c23)S1(=O)=O	.	2.0	-1	14	1	0.2%
CC1(C)CC(=O)C=C(c2ccc(COC(=O)c3ccccc3)cc2)C1=O	-9	0.2	-16	-7.0	1	3.3%
Cc1ccccc1NC(=O)Cc1nc(COC(=O)CCC(=O)c2ccccc2)cs1	1	3.2	4	5.9	-1	-0.5%
COc1ccc(-c2coc3cc(OC(C)=O)c(OC)cc3c2=O)cc1	-2	.	-2	-2.1	-17	0.1%
CCOC(=O)N1CCC(N(CCN(C)C)C(=S)Nc2cccc(OC)c2)CC1	8	-0.2	4	-3.9	2	0.9%
Cc1onc(-c2ccccc2)c1C(=O)N1CCN(S(=O)(=O)c2ccc3c(c2)OCCO3)CC1	0	-0.2	0	-4.8	-4	-2.5%
O=C(NCc1ccc2c(c1)OCO2)c1c(-c2ccsc2)sc2ccccc12	8	1.8	3	12	-1	-0.2%
CN(C(=O)c1cccc(C#N)c1)c1nnc(C2CCOC2)s1 (stereo unspecified)	-2	1.4	3	-1.7	-6	-1.7%
CCOC(=O)C1(C)CCCN(C(=O)c2cccs2)C1 (stereo unspecified)	20	0.8	23	-4.9	-6	-0.8%
COc1ccc(C(CC(=O)NCCN2CCOCC2)NS(=O)(=O)c2ccc(C)cc2)cc1 (stereo unspecified)	7	0.8	0	-2.4	-10	4.4%[38.3 µM]
CC(=O)c1ccccc1Oc1ncnc(N)c1[N+](=O)[O-]	-4	1.8	-1	6.4	-7	-2.7%
O=c1cc(N2CCc3ccccc3C2)[nH]c(=O)n1-c1ccccc1Cl	2	0.4	5	-3.8	-4	-0.7%
CC(C)C(=O)N1CCN(c2ccccc2NC(=O)c2cccc3ccccc23)CC1	-10	2.1	-5	-1.6	-2	2.6%
Cc1ccc(-c2nnc3n2CCCCC3)cc1	4	-0.2	-7	-0.9	0	-2.4%
Cc1cc(C(=O)NCC(=O)Nc2c(C)cccc2C)c2ccccc2n1	.	-0.3	9	-3.1	-5	1.6%
COc1ccc(Cl)cc1NC(=O)C/C(C)=N/NC(=O)c1ccc(O)cc1	-1	0.7	-20	-2.2	-3	5.3%

Brought forward from above: two compounds, followed by the next part.
SMILES	CtBP-E1A blk	TRPML1 ag	Six1-Eya2 inh	D2 ag	D2 potentiator	PINK1 expr mod
Cc1cc(C(=O)NCC(=O)Nc2c(C)cccc2C)c2ccccc2n1	.	-0.3	9	-3.1	-5	1.6%
COc1ccc(Cl)cc1NC(=O)C/C(C)=N/NC(=O)c1ccc(O)cc1	-1	0.7	-20	-2.2	-3	5.3%
O=C(C[C@H]1C/C=C\CCC(=O)O[C@@H](c2ccccc2)CNC1=O)NCCO	-16	0.2	14	-3.7	-6	0.3%
Cn1c(SCc2cccc(F)c2)nnc1-c1ccncc1	1	1.7	-8	-1.6	-1	0.8%
CC(C)(C)C1COc2ccccc2N1C(=O)c1cccc(Cl)c1 (stereo unspecified)	9	-0.4	9	-0.3	-3	18%
CCOC(=O)CSc1nnc(CNC(=O)c2cccs2)n1-c1cccc(C)c1	0	0.0	-2	-1.7	-9	0.5%[38.3 µM]
CC(=O)NS(=O)(=O)c1ccc(NC(=S)NC(=O)C(C)(C)C)cc1	5	0.4	3	-3.7	-17	7.4%[38.3 µM]
CN(C(=O)CCc1nnc(Cc2ccc(-c3ccccc3)cc2)o1)C1CCOCC1	2	0.2	20	-2.2	-5	-0.5%
CCC(C)NS(=O)(=O)c1ccc(OCC(=O)Nc2ccc3c(c2)OCO3)cc1 (stereo unspecified)	0	0.1	-1	2.7	9	-1.6%[38.3 µM]
Cc1cccc(C)c1NC(=O)C[N+](C)(C)CC(O)COc1cccc2ccccc12 (stereo unspecified)	-12	-1.1	-8	-6.2	-46	1.1%
COc1ccc(C(=O)N2N=C(c3ccccc3)CC2(O)C(F)(F)F)cc1 (stereo unspecified)	1	-0.2	-4	-8.6	-6	1.2%
COc1ccc(O)c(C(=O)c2cc(C#N)c(=O)n(-c3c(C)n(C)n(-c4ccccc4)c3=O)c2)c1	1	11	-6	-2.5	-14	0.6%
c1ccc2cc3[nH]c(CN4CCOCC4)nc3cc2c1	0	-1.3	15	-4.0	-5	-1.8%
CN(C)c1ccc(/C=C/c2ccc3ccccc3[n+]2C)cc1	10	-0.5&0.4	-1	-5.2	-8	?
CCC(=O)Nc1ccc(Oc2ccc3c(c2)C(=O)N(c2ccc(O)cc2)C3=O)cc1	30	0.0	17	-0.9	-6	5.3%
O=C1CCCCN1CCCC(=O)N1CCCC(Nc2ccc(F)cc2)C1 (stereo unspecified)	.	0.1	0	2.5	-11	0.7%
Cn1c(Cn2cnc(Cl)c2Cl)nc2ccccc21	-2	-1.3	5	2.1	13	-0.7%
COc1ccc(CN(C)C(=O)/C=C/c2ccc(S(=O)(=O)N3CCOCC3)cc2)cc1F	0	-1.1	-7	2.3	-19	2.5%
CCCCn1cnc(C(=O)OCC)c1N	0	0.0	10	-7.5	0	2.7%
CC#CCc1cc2ccccc2c(=O)o1	0	-0.1	7	1.9	-1	0.3%
COc1n[nH]c(C(=O)NCc2ccccc2)c1[N+](=O)[O-]	.	0.2	-2	-3.1	-7	3.3%
COC(=O)CNC(c1ccccc1)c1cc(C)ccc1NC(=O)c1cccc(Cl)c1 (stereo unspecified)	4	4.9	4	-3.2	-6	9.4%

Quoted from the listing:
`CCC(=O)Nc1ccc(Oc2ccc3c(c2)C(=O)N(c2ccc(O)cc2)C3=O)cc1` in D2 potentiator → -6
`O=c1cc(N2CCc3ccccc3C2)[nH]c(=O)n1-c1ccccc1Cl` in D2 potentiator → -4
`CN(C(=O)c1cccc(C#N)c1)c1nnc(C2CCOC2)s1` (stereo unspecified) in D2 ag → -1.7

More results follow.
SMILES	CtBP-E1A blk	TRPML1 ag	Six1-Eya2 inh	D2 ag	D2 potentiator	PINK1 expr mod
CC(C)(C)NC(=O)CN(C(=O)CS(=O)CC(=O)Nc1ccc(F)cc1)c1ccccc1 (stereo unspecified)	0	0.3	2	-1.8	-6	-3.8%[38.3 µM]
Cc1noc(C)c1COc1ccc(C(=O)Nc2cccnc2)cc1	1	-0.4	-1	-0.6	7	-1.2%
CC(C)(C)OC(=O)N1CCCN(C(=O)Nc2ccc(OC(F)(F)F)cc2)CC1	3	0.9	6	-0.3	-13	3.5%
O=C(CCSc1nc2ccccc2o1)N1CCOCC1	0	0.0	-3	-0.4	-26	-0.9%
O=C(Nc1ccc(Oc2ccc(NC(=O)c3ccco3)c(NC(=O)c3ccco3)c2)cc1)c1ccco1	6	1.4	-5	1.4	7	-1.9%[38.3 µM]
Cc1ccc(S(=O)(=O)N2CCC(C(=O)Nc3cccnc3)CC2)cc1	7	1.6	5	3.5	-4	-1.2%
NC(=O)N1c2ccccc2C=Cc2ccccc21	10&1	0.1&0.4	13&-2	3.3&-4.4	3&-6	2.4%&4.0%
COc1cc(/C=N/NC(=O)c2ccc3nc[nH]c3c2)ccc1O	-3	0.3	-15	-1.2	0	3.4%
CC1(C(=O)Nc2ccc(F)c(Cl)c2)Cc2c(-c3ccccc3)ccnc2O1 (stereo unspecified)	0	-0.5	-2	5.5	4	2.0%
O=C(CN1C(=O)NC2(CCCCC2)C1=O)N1CCc2ccccc2C1	1	2.8	3	6.8	-7	-1.2%
CC1CCCN(C(=O)CN2CCN(C(=O)c3ccco3)CC2)C1 (stereo unspecified)	3	-0.5	-2	-2.8	-9	-0.1%
CNC(=O)c1cc(NC(=O)N(CCC#N)CCN(C(=O)NC(Cc2ccccc2)C(=O)NC(CC(C)C)C(=O)NC)c2ccccc2)ccc1OC (stereo unspecified)	0	0.6	21	-1.7	-17	2.7%
CC(=NCc1ccccc1)C1=C(O)COC1=O	-5	1.0	13	-2.2	-6	0.1%
CC(=O)NC(C1C(=O)CC(C)(C)CC1=O)(C(F)(F)F)C(F)(F)F	12	1.3	0	-0.6	-23	-3.1%[38.3 µM]
O=C(Nc1nc2c(s1)CN(Cc1ccccc1)CC2)C1CCC1	-16	0.0	-15	-1.1	-7	2.7%
C/C(=N\NC(=O)c1ccc(NS(=O)(=O)c2cccs2)cc1)c1ccc(Cl)cc1	-1	-0.4	-18	-0.3	-10	3.8%
COc1ccc(C)cc1S(=O)(=O)NC1CCCC1	1	0.7	5	-1.1	8	12%
c1ccc2c(-c3[nH]ncc3CNCCCn3ncc4ccccc43)cccc2c1	-10	0.2	-7	-2.0	-16	0.4%
COc1cc(C(=O)COC(=O)c2cccs2)cc(OC)c1OC	3	-0.6	-3	-1.1	-27	0.0%
COc1ccc(-c2nc(SC(C)C(=O)c3c(N)n(C)c(=O)n(C)c3=O)n[nH]2)cc1 (stereo unspecified)	.	0.5	-8	6.9	1	2.8%
Cc1c(/C=N/NC(N)=O)c2ccccn2c1C(=O)c1ccc(F)cc1	14	-0.4	?	-4.7	-7	-1.6%
Nc1cccc2c1C(=O)N(C(=O)c1ccc(Cl)c(S(=O)(=O)N3CCCCCC3)c1)C2=O	0	2.2	4	-6.2	-24	0.1%
C#CCOc1ccccc1CNC1CCN(Cc2ccccc2)CC1	.	1.5	2	-4.5	-11	-1.2%
[O-][N+]12CC[N+]([O-])(CC1)c1ccccc12	2	0.3	-9	-2.1	-20	-2.7%
CC(=O)N1c2c(cc(Br)cc2S(=O)(=O)N2CCOCC2)CC1C (stereo unspecified)	-3	0.2	0	-3.8	-4	-0.8%
Cc1ccc(C)c(NC(=O)COC(=O)c2cc(=O)c3ccccc3o2)c1	0	0.4	1	-7.2	-11	1.5%
COc1ccc(CNC(=O)CN(C(=O)CCC(=O)Nc2ccccn2)c2ccc(C)cc2)cc1	4	-0.9	0	-4.5	-11	1.6%
O=C(COc1ccc(Cl)cc1)N(Cc1ccco1)C1CCS(=O)(=O)C1 (stereo unspecified)	-9	0.3	-5	1.1	-6	2.4%
CC(=O)c1cc(C(=O)N2CCc3c([nH]c4ccccc34)C2C2CCCCC2)[nH]n1 (stereo unspecified)	-6	0.5	-10	-3.9	-6	-0.2%
Cc1nc(N/N=C/c2cccc(F)c2)cc(N2CCOCC2)n1	-11	1.1	-10	2.8	-5	-1.1%
OC(COCC1COc2ccccc2O1)CN1CCCCC1 (stereo unspecified)	-11	1.3	3	-7.5	-6	-2.4%
CCc1ccc2c(c1)NC(=O)C2(C)Cc1ccccc1OC (stereo unspecified)	1	0.6	1	11	-1	11%

Screens deposited in PubChem BioAssay by National Center for Advancing Translational Sciences (NCATS).
